High-throughput results as filed in PubChem BioAssay.
GLA inh pH 4.5: inhibitors of human alpha-galactosidase A at pH 4.5; P06280; activity change, negative = inhibition, % at 105 µM; AID 1467; purified enzyme, 4-MU-alpha-Gal fluorescence, pH 4.5; 230,000 tested, under 10 active; inconclusive = small, poorly fitted or top-dose-only inhibition, or a rising curve; inactive = flat fitted curve, though single readings scatter; no compound was filed as active;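 also: 0% = full activity with enzyme and -100% = basal without enzyme; dose as in the result columns while the protocol names 77 µM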
miR-21 reporter: raises the signal of a miR-21 reporter; HeLa miR-21 FLuc reporter, luciferase, 48 h; 340,000 tested, under 10 active; Potency, µM (titrated, usually from 38.3 µM), without a hit: top-dose reporter change, positive = more light; AID 2288; active = well fitted rising curve with a large enough effect; inconclusive = small, poorly fitted or top-dose-only effect; inactive = no such curve, though single readings can be large or run the other way;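 also: % of control where 0% means no effect; miR-21 action dims this reporter so a rising signal means less miR-21 action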
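Compounds were titrated across several concentrations (up to approximately 40 uM) and incubated 48 hours with HeLa miR-21-FLuc reporter cells (miR-21 target sequence downstream of FLuc, endogenous miR-21). Readout was firefly luciferase luminescence after lytic detection reagent.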
Rango complex inh: Rango-importin beta binding inhibition | Q14974 | Rango CFP/YFP FRET sensor + importin beta, 45 min | Potency, µM (top dose mostly 92.2 µM), without a hit: at the highest dose inhibition of complex formation | actives 0.031% (n = 340,000) | AID 540263; active = rising FRET ratio curve, often small or poorly fitted; inconclusive = mostly compound fluorescence or quenching in the first reads; inactive = flat curves in all reads;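 also: potency is read from the fitted curve at half-maximal effect; 0% = DMSO wells and 100% = buffer wells lacking importin beta; nearly all actives have a fitted effect of over 15% in size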
Target sequence (Q14974 whole entry, looked up): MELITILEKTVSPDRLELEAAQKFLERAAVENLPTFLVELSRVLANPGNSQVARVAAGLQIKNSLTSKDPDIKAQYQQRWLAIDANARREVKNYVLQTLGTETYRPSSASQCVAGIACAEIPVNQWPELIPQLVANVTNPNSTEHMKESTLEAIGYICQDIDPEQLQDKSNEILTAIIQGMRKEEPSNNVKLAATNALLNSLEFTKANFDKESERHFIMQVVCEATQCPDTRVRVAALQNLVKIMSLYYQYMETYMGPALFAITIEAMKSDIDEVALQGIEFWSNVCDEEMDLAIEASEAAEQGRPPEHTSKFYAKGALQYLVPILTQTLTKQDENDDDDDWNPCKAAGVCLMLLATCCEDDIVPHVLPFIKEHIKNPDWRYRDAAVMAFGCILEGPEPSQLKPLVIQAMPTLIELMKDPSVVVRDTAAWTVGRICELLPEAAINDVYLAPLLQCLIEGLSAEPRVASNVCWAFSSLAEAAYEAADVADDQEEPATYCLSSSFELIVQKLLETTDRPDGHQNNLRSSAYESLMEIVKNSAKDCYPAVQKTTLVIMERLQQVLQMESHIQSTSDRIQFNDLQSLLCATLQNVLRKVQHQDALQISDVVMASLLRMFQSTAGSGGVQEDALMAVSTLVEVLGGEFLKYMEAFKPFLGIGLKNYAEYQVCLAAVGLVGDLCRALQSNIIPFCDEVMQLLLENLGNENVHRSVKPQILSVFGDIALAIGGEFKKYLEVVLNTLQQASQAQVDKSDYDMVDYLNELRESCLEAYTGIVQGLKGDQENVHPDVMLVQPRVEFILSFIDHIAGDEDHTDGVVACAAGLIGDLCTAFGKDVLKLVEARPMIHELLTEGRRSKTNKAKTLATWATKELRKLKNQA
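FRET biosensor (snurportin 1 IBB flanked by EYFP and cerulean), 50 nM, with compound 5 min, then 0.125 microM importin beta in PBS, 1 mM DTT, 0.02% Tween-20, 0.1% BSA. CFP/YFP ratio read after 45 min at room temperature; pre-read flags interference.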
Rango release inh: prevents RanGTP from dissociating the Rango-importin beta complex; actives 0.071% (n = 340,000); AID 540253; Biochemical FRET Rango-importin beta, RanGTP-induced dissociation; O95149+P62826; Potency, µM (series often up to 46.1 µM), for inactives: at the highest dose activity change, negative = inhibition; active means falling FRET ratio curve, often poorly fitted, with flat reads before Ran was added; inconclusive means other falling curves, or compound fluorescence or quenching; inactive means flat or rising ratio curve;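 also: potency is read from the fitted curve at half-maximal effect; % of control where 0% means no effect; nearly all actives have a fitted effect of over 45% in size; -100% = wells without RanGTP and RCC1; the record marks most hits as doubtful in a second field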
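Rango (0.1 uM)–importin beta (0.25 uM) complex; RanGTP-RCC1 trigger; 45 min RT; CFP/YFP FRET read.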
* = called active by the depositor; ? = inconclusive; . = no result given; & = joins results of further samples. These rows are one share of the data (hit frequency here may not be typical).

The opening 7 records (preview)
GLA inh pH 4.5	miR-21 reporter	Rango complex inh	Rango release inh	molecule
.	.	-0.3%	-1%	CCOC(=O)c1sc2ncn(CC(=O)Nc3cc(C)on3)c(=O)c2c1C
-2	-3%	-4.2%	39%	OC1(CC#CCN2CCCCC2)c2ccccc2-c2ccccc21
-19	-1%	1.3%	6%	O=C(NCCc1c[nH]c2ccccc12)C(=O)NCC(c1ccco1)N1CCN(c2ccccc2)CC1 (stereo not given)
-2	3%	-0.4%	4%	Cc1cc2c(nn1)CCc1c-2no[n+]1[O-]
0	0%	1.4%	5%	Cc1cccc(OCC(=O)NC2CCCc3ccccc32)c1C (stereo not given)
.	-29%	-0.3%	9%	CCC(=O)NCCc1nc2cc(NC(=O)c3ccc(Cl)cc3)ccc2n1C
0	6%	-1.6%	-5%	CC1(C)CC(=O)C2=C(C1)Nc1nc(SCCN3CCOCC3)[nH]c(=O)c1C2c1cccs1 (stereo not given)

All compounds of this part, previewed entries included:
GLA inh pH 4.5	miR-21 reporter	Rango complex inh	Rango release inh	molecule
.	.	-0.3%	-1%	CCOC(=O)c1sc2ncn(CC(=O)Nc3cc(C)on3)c(=O)c2c1C
-2	-3%	-4.2%	39%	OC1(CC#CCN2CCCCC2)c2ccccc2-c2ccccc21
-19	-1%	1.3%	6%	O=C(NCCc1c[nH]c2ccccc12)C(=O)NCC(c1ccco1)N1CCN(c2ccccc2)CC1 (stereo not given)
-2	3%	-0.4%	4%	Cc1cc2c(nn1)CCc1c-2no[n+]1[O-]
0	0%	1.4%	5%	Cc1cccc(OCC(=O)NC2CCCc3ccccc32)c1C (stereo not given)
.	-29%	-0.3%	9%	CCC(=O)NCCc1nc2cc(NC(=O)c3ccc(Cl)cc3)ccc2n1C
0	6%	-1.6%	-5%	CC1(C)CC(=O)C2=C(C1)Nc1nc(SCCN3CCOCC3)[nH]c(=O)c1C2c1cccs1 (stereo not given)
-14	-4%	-2.6%	9%	Cc1nn(CC(=O)NCCN2CCOCC2)c(C)c1[N+](=O)[O-]
-15	-40%	?	1%	CCCCOC(=O)Nc1nc2ccccc2s1
.	-4%	4.1%	13%	CCOc1ccccc1NC(=O)c1ccc2c(c1)C(=O)N(CC)C2=O
-1	0%	-8.0%	4%	CCc1sc(N(C(=O)Cc2ccccc2)c2ccc(F)cc2)nc1-c1ccccc1
-8	-61%	4.1%	1%	CC(=O)c1sc(NC(=O)c2ccccc2F)nc1-c1ccccc1

(next part)
GLA inh pH 4.5	miR-21 reporter	Rango complex inh	Rango release inh	molecule
.	.	-3.6%	-1%	CC(Sc1nnc(C2CC2)n1-c1ccccc1)C(=O)N1CCCC1 (stereo not given)
4	-13%	1.0%	-1%	Cc1cc(NS(=O)(=O)c2ccc(NC(=S)NC(=O)c3ccccc3)cc2)no1
.	.	-0.1%	0%	COc1ccc2[nH]c3c(c2c1)CCN1C(=O)C(CC(=O)NCc2ccc(OC)c(OC)c2)C[C@H](C(=O)N2CCCCC2)[C@@]31CCc1ccccc1 (stereo not given in full)
-16	10%	-0.1%	-1%	COc1ccc(S(=O)(=O)n2cnc3cc(C)c(C)cc32)cc1C
5	-16%	5.4%	5%	Cc1cc2oc(=O)cc(CN3CCCCC3C)c2c(C)c1Cl (stereo not given)
-2	0%	?	-1%	CC(C)c1ccc(C2CC(=O)N3CN(C)CSC3=C2C#N)cc1 (stereo not given)
3	7%	3.7%	9%	CC(C)CC(=O)Nc1nc2c(c(=O)[nH]1)CCCC2
-2	5%	0.4%	0%	COc1cc([N+](=O)[O-])cc(/C=N/NC(=O)Cn2nccc2C)c1O
3	26%	-1.1%	5%	Cc1c(NC(=O)CSc2nnc3c4ccccc4n(CCc4ccccc4)c3n2)c(=O)n(-c2ccccc2)n1C
1	-1%	0.2%	-11%	C=CCOc1ccc(Cl)cc1CNC1CCCC1
.	.	0.8%	2%	COC(=O)CSc1nc(SC)nc2c1sc1nc(-c3ccco3)c3c(c12)CC(C)(C)OC3
-1	2%	0.5%	0%	O=C(O)c1[nH]c2ccc(Cl)cc2c1CC(=O)N1CCN(C(=O)c2ccco2)CC1

New compounds follow
GLA inh pH 4.5	miR-21 reporter	Rango complex inh	Rango release inh	molecule
2	1%	0.6%	6%	O=C(N/N=C/c1ccccn1)c1ccc(NC(=O)c2cccc([N+](=O)[O-])c2)cc1
1	1%	3.1%	20%	CC1CCN(CCCNC(=O)C2CCC(=O)N2C2CCCC2)CC1 (stereo not given)
7	0%	-2.1%	7%	CCOC(=O)N1CCN(C(=O)C2CCN(S(=O)(=O)N(CC)CC)CC2)CC1
.	0%	0.0%	25%	COC(=O)CCC(=O)N1CCCC(N2CCN(c3ccc(OC)cc3)CC2)C1 (stereo not given)
.	-33%	-0.2%	-4%	CC(=O)N1CCN(C(=O)C2(NC(=O)Nc3ccc(C)cc3)CCCCC2)CC1
2	-5%	2.1%	-11%	Cc1cc(C(F)(F)F)n2ncc(-c3ccc(F)cc3)c2n1
-5	-1%	-2.7%	6%	CCOC(=O)N1CCC(c2cc(=O)n3[nH]cc(C(=O)OC)c3n2)CC1
-16	4%	-0.1%	26%	COc1ccccc1S(=O)(=O)Cc1ccc(C(=O)NCc2ccc3c(c2)OCO3)o1
-3	2%	0.9%	3%	COC(=O)c1nnn(CC(=O)Nc2cccc(OC)c2)c1C(=O)OC
.	-1%	0.7%	9%	CNC(=O)c1cc(C(=O)c2ccccc2Br)c[nH]1
0	-2%	-0.7%	14%	COc1ccccc1C(=O)NNC1CC(=O)N(c2ccc3c(c2)OCCO3)C1=O (stereo not given)
-7	-14%	2.5%	8%	O=C(CSc1nnc(-c2ccc(O)cc2)o1)N1CCOCC1

Next part
GLA inh pH 4.5	miR-21 reporter	Rango complex inh	Rango release inh	molecule
.	.	0.8%	35%	CS(=O)(=O)c1ccc(C(=O)NNC(=O)c2cccs2)cc1
1	1%	0.0%	-10%	CC/C(=N\NS(C)(=O)=O)c1ccccc1
-1	-12%	-5.1%	25%	COc1ccc(NC(=S)Nc2ccccc2)cn1
.	?	0.1%	-4%	CCc1cccc(NC(=O)C2CCCN(S(=O)(=O)c3cccs3)C2)c1 (stereo not given)
0	-31%	-1.1%	0%	c1ccc(Cc2nn3c(Cn4nnc5ccccc54)nnc3s2)cc1
.	4%	-5.5%	-6%	COc1cc(CN2CCN(CCCc3ccccc3)C(CCO)C2)cc(OC)c1O (stereo not given)
-16	8%	9.0%	-3%	Cc1ccnc(N2CCC(C(=O)Nc3cccc(C(F)(F)F)c3)CC2)n1
5	3%	0.0%	-11%	O=C(OCC(=O)N1CCN(C(=O)c2ccco2)CC1)c1cc(-c2ccccc2)nc2ccccc12
.	-5%	-4.1%	-19%	COc1cccc(Cn2cccc(NC(=O)NCc3ccccc3)c2=O)c1
.	6%	0.5%	-1%	CCn1ncc(S(=O)(=O)Nc2cc(Cl)ccc2C)c1C
.	.	-1.9%	9%	Cc1cnc(C(=O)OCC(=O)Nc2ccc(OCc3ccccc3)cc2)cn1
2	0%	3.5%	1%	Cc1nn(C)c(C)c1S(=O)(=O)N(CC(=O)NC1CCCCCC1)c1ccc(C(C)C)cc1

More results
GLA inh pH 4.5	miR-21 reporter	Rango complex inh	Rango release inh	molecule
-4	-10%	?	?	O=C(C1=C(O)C(=O)N(c2nccs2)C1c1ccccc1)c1cc2ccccc2o1 (stereo not given)
.	13%	0.8%	-6%	Cc1ccccc1-c1nc(CS(=O)CC(=O)NC(C)CCc2ccccc2)c(C)o1 (stereo not given)
.	.	-2.5%	15%	O=C(NCc1ccccn1)c1cccc(S(=O)(=O)N2CCc3ccccc32)c1
8	0%	-0.5%	0%	Cc1nc(NS(=O)(=O)c2ccccc2)sc1NC(=O)OC(C)C
1	11%	?	?	COc1ccc2c(c1)CCC1=C2NC(=S)NC1c1ccc(N(C)C)cc1 (stereo not given)
.	0%	2.5%	-21%	CCc1nnc(NC(=O)CCN2C(=O)/C(=C/c3cc(OC)c(OC)c(OC)c3)SC2=S)s1
.	-3%	-4.0%	22%	CCN1CCN(C(=O)C2CCN(S(=O)(=O)c3cc(Cl)ccc3Cl)CC2)CC1
.	.	-3.2%	-5%	COC(C)(C)[C@@H](O)COc1c2ccoc2cc2oc(=O)ccc12
5	30%	-1.4%	15%	Cc1ccc(NC(=O)c2cc(S(=O)(=O)NCCC3=CCCCC3)ccc2F)cc1
.	.	1.0%	-20%	COc1ccc([C@@]23Oc4cc(OC)cc(OC)c4[C@]2(O)[C@H](O)[C@H](C(=O)N(C)C)[C@H]3c2ccccc2)cc1
14	-6%	2.7%	-3%	O=C(c1ccccc1)c1cnc2ccc(Cl)cc2c1N1CCOCC1
-6	-10%	1.5%	10%	Cc1ccc(C(=O)Nc2ccccc2)cc1S(=O)(=O)Nc1ccc(Cl)cn1

(continued)
GLA inh pH 4.5	miR-21 reporter	Rango complex inh	Rango release inh	molecule
-3	-18%	2.7%	2%	Cc1ccc(NC(=O)c2ccc([N+](=O)[O-])cc2)cc1S(=O)(=O)N(C)C
.	0%	-0.3%	1%	Cc1ccc(-n2ncc(C(=O)N3CCN(C(=O)c4ccco4)CC3)c2-n2cccc2)cc1
.	.	-1.1%	-6%	COc1ccc(C(CNC(=O)c2ccco2)N2CCOCC2)cc1 (stereo not given)
.	.	-3.0%	1%	COC(=O)c1cc(OC)c(OC)cc1NC(=O)CSCc1c(C)noc1C
.	.	-4.2%	27%	COc1ccc([N+](=O)[O-])cc1NC(=O)COC(=O)Cn1cnc2ccccc2c1=O
.	-2%	2.5%	8%	COCCN(C(=O)c1csnn1)C(C(=O)NC1CCCCC1)c1ccccc1 (stereo not given)
-3	-2%	5.0%	9%	COc1cccc(/C=N/NC(=O)CCc2c(C)n[nH]c2C)c1
.	.	0.2%	23%	CCCCN1CC(COCc2ccccc2)Oc2cccc(Oc3ccc(OC)cc3)c2S1(=O)=O (stereo not given)
-27	17%	-0.9%	21%	COc1ccc(-c2oc(NC(=O)CSc3ncn[nH]3)c(C#N)c2-c2ccc(OC)cc2)cc1
.	1%	-2.1%	-3%	COc1cc(CNC(=O)c2ccc3oc(C(C)C)nc3c2)cc(OC)c1
.	23%	-2.4%	2%	COc1ccc(NC(=O)COc2ccc(C(=O)c3ccc(F)cc3)cc2)cc1S(N)(=O)=O
.	.	-2.3%	-9%	Cc1cccc(C(=O)OCC(=O)N2CC(C)CC(C)C2)c1C (stereo not given)

Later entries
GLA inh pH 4.5	miR-21 reporter	Rango complex inh	Rango release inh	molecule
.	.	-0.6%	-15%	CCN(CC)CCn1c2c(c(SCC(=O)Nc3nc4ccc(C)cc4s3)nc1=O)CCC2
-1	3%	-0.5%	-8%	CC(CN1CCCC1)C(=O)NN (stereo not given)
-4	6%	5.6%	10%	Cc1ccc(CC(=O)Nc2ccccc2N2CCOCC2)cc1C
.	-12%	?	-16%	Cc1ccc(NC(=O)NCCN2CCCCC2)cc1Cl
.	-3%	?	-29%	Cc1cc(C)n(CCC(=O)Nc2ccc(-c3ccno3)cc2)n1
.	4%	7.0%	7%	O=C1NC(=S)S/C1=C/c1ccc(OC(=O)c2ccco2)cc1
.	.	-0.7%	15%	O=C(CN1CCN(S(=O)(=O)c2cccc(F)c2)CC1)Nc1ccnn1C1CCCC1
.	?	-0.4%	-3%	Cc1ccc(C2=NN(C(=O)CCl)C(c3ccco3)C2)o1 (stereo not given)
.	.	0.9%	10%	CCCCN(Cc1cc2cc(OC)ccc2[nH]c1=O)C(=O)COc1ccccc1
.	-12%	-4.9%	2%	CC(=O)c1ccc(NC(=O)CSc2nnc(NC(=O)c3ccco3)s2)cc1
1	-3%	-0.3%	7%	CCOC(=O)c1nnc(-c2ccccc2)nc1NCc1ccccc1
3	1%	0.4%	-5%	CCc1c(C)nc2cc(-c3cc(OC)cc(OC)c3)nn2c1N1CCN(CCN2CCOCC2)CC1

The list goes on.
GLA inh pH 4.5	miR-21 reporter	Rango complex inh	Rango release inh	molecule
-6	11%	-0.5%	-4%	COc1ccc(Cc2c(Cl)ncnc2Cl)cc1
-8	?	-4.0%	12%	O=C(Nc1cccc(S(=O)(=O)C(F)F)c1)c1ccc(Cl)c(S(=O)(=O)N2CCOCC2)c1
.	.	5.9%	-5%	CC1(C)CC2CC(C)(CN2C(=O)COC(=O)c2cncc(Br)c2)C1 (stereo not given)
.	-5%&0%	3.2%	0%	Cc1cccc(/C=C/c2onc(C)c2S(=O)(=O)N2CCC(C(=O)N3CCC(C)CC3)CC2)c1
